SARS PLpro yeast – blocks SARS-CoV papain-like protease in a yeast assay; 0.19% of 330,000 active; Potency, µM (doses to about 32.9 µM), inactives show at the top dose activity, positive = growth rescue; S. cerevisiae expressing SARS-CoV PLpro, growth rescue; control for the full effect not named in the record; AID 485353; also: 0% is about no effect; nearly all actives have a fitted effect of over 55% in size; growth read by luminescence after 48 h
2A StopGo – lowers the luciferase signal of an FMDV 2A StopGo reporter. 1.2% of 410,000 active. human cells with a luciferase reporter of 2A StopGo recoding; control for the full effect not named in the record. Potency, µM (highest dose often 57.9 µM), without a hit: at the highest dose signal change, negative = less light; active = well fitted falling curve with a large enough effect; inconclusive = small, poorly fitted or top-dose-only effect; inactive = no such curve, though single readings can be large or run the other way; tested in HEK293T cells; also: % is scaled to controls: 0 for no effect and ±100 for the full control effect; nearly all actives have a fitted effect of over 45% in size; luciferase light after 4 h
Cruzain noTriton – inhibitors of Trypanosoma cruzi cruzain without detergent. P25779. purified cruzain, Z-FR-AMC fluorescence, no detergent. Potency, µM, without a hit: max response, negative = inhibition, hits mostly inhibitors. 2.3% of 200,000 active. AID 1476; active = well fitted curve in the direction sought with a large enough effect; inconclusive = small, poorly fitted or top-dose-only effect, or another doubt; inactive = no such curve, though single readings can be large; an effect the other way counts as inactive or inconclusive;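 also: plate controls were enzyme without inhibitor for no effect and buffer without enzyme for full effect; nearly all actives have a fitted effect of over 40% in size; top concentration of the series not given in the record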
Target sequence (P25779 123-467 limits assumed): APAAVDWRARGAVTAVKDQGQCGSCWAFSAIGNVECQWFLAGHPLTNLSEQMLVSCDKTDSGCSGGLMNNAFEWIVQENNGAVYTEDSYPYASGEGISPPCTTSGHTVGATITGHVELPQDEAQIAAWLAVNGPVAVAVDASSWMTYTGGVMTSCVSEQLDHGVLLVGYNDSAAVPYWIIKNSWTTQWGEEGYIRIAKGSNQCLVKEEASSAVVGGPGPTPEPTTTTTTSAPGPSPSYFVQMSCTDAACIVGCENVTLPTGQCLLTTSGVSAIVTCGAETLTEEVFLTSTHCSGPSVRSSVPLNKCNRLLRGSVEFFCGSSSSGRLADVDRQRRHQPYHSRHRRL
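Detergent-free condition (0.00005% Triton X-100) in acetate buffer pH 5.5 with DTT. 1.5 nM enzyme and compound were pre-mixed 15 min, then 2 uM Z-FR-AMC substrate added; reaction progress from fluorescence change between first and third reads (60 s).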
Marburg entry inh – Marburg virus entry inhibition; Marburg virus pseudotyped entry inhibition, cell reporter; control for the full effect not named in the record; about a third of the inactives were read at about 46 µM; Potency, µM (titrated, usually from 37.8 µM), for inactives: at the top dose activity change, negative = inhibition, hits mostly inhibitors; 1.8% of 300,000 active; AID 540276; active = well fitted inhibition curve with a large enough effect; inconclusive = small, poorly fitted or top-dose-only effect, or effect the other way; inactive = flat fitted curve, though single readings scatter; tested in HEK293 cells; about a fifth of its hits are not listed in these tables; also: % is scaled to controls: 0 for no effect and ±100 for the full control effect; luciferase read-out
Cruzain inh Det – blocks cruzain activity in presence of Triton detergent | AID 1478 | 0.43% of 200,000 active | purified cruzain, Z-FR-AMC fluorescence, 0.01% Triton | Potency, µM, inactives show max response, negative = inhibition, most hits filed as inhibitors; active = well fitted curve in the direction sought with a large enough effect; inconclusive = small, poorly fitted or top-dose-only effect, or another doubt; inactive = no such curve, though single readings can be large; an effect the other way counts as inactive or inconclusive;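 also: plate controls were neutral wells for no effect and buffer without enzyme for full effect; nearly all actives have a fitted effect of over 40% in size; top concentration of the series not given in the record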
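Compounds were screened in titration against cruzain (1.5 nM) with 0.01% Triton X-100 to counter colloidal aggregation. Activity was the AMC fluorescence increase over 60 s after adding 2 uM Z-FR-AMC at pH 5.5.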
RE007 growth inh – less growth of the S. pombe RE007 Vpr strain; S. pombe RE007 Vpr strain, BacTiter-Glo ATP luminescence, 24 h; control for the full effect not named in the record; 0.21% of 360,000 active; Potency, µM (titrated, usually from 92.2 µM), inactives show at the top dose activity change, negative = less growth; active = well fitted falling curve with a large enough effect; inconclusive = small, poorly fitted or top-dose-only effect; inactive = no such curve, though single readings can be large or run the other way;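 also: % is scaled to controls: 0 for no effect and ±100 for the full control effect; nearly all actives have a fitted effect of over 50% in size; the assay follows cell death caused by Vpr and the record does not say whether a fall means rescue or toxicity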
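Fission yeast strain RE007, carrying one chromosomally integrated HIV-1 vpr copy, was seeded at OD 0.01 in PMG+AL medium with 23 nL pinned compound. After 24 h at 30 °C and 99% humidity, viability was read by BacTiter-Glo luminescence.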
NS1 function inh – blocks influenza NS1 protein function. 0.4% of 270,000 active. Potency, µM (titrated, usually from 46.1 µM), for the others: top-dose activity, positive = more growth. S. cerevisiae slowed by influenza A NS1, growth recovery by OD600; also: actives are rising curves; nearly all actives have a fitted effect of over 50% in size
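In this qHTS, NS1 from influenza A is expressed in budding yeast, where it slows growth. Cells are switched from glucose to 2% galactose medium (pH 6.0, -URA), treated with compound, and growth recovery is read at OD600.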
LASV entry inh – Lassa virus entry inhibition; Lassa virus pseudotype entry inhibition, cell reporter; control for the full effect not named in the record; Potency, µM (titrated, usually from 37.9 µM), inactives show at the top dose activity change, negative = inhibition, usual class: inhibitors; 1.2% of 300,000 active; active means well fitted inhibition curve with a large enough effect; inconclusive means small, poorly fitted or top-dose-only effect, or effect the other way; inactive means flat fitted curve, though single readings scatter; tested in HEK293 cells; also: % is scaled to controls: 0 for no effect and ±100 for the full control effect; nearly all actives have a fitted effect of over 50% in size; luciferase read-out
An asterisk follows results filed as active; ? = inconclusive; / = not tested or not shown; & = joins results of further samples; [ ] = another dose, or the depositor's remark. Unless noted, calls follow the shape of the dose curve; as a rule, active means well fitted rising curve with a large enough effect; inconclusive means small, poorly fitted or top-dose-only effect; inactive means no such curve, though single readings can be large or run the other way. Potency is read from the fitted curve at half-maximal effect.

SMILES	SARS PLpro yeast	2A StopGo	Cruzain noTriton	Marburg entry inh	Cruzain inh Det	RE007 growth inh	NS1 function inh	LASV entry inh
O=C(O)c1ccc(NC(=O)c2cccc(S(=O)(=O)Nc3ccc(C(=O)O)cc3)c2)cc1	6%	-24%	/	/	/	-2%	4%	/
CCC(=O)Nc1ccc(NC(=S)NC(=O)Cc2ccccc2)cc1	-6%	4%	6%	?	-4.9%	-1%	-2%	-22%
COc1ccc(O)c(C=Nc2cc(NC(C)=O)c(Cl)cc2Cl)c1	-7%	10%	2%	-24%	-6.1%	/	-2%	?
COc1ccc(Br)cc1Cn1nnc(C(=O)Nc2ccc(C)cc2C)c1N	/	-4%	?	?	-2.5%	/	/	7%[46.1 µM]
Nc1cc(=O)[nH]c(SCC(=O)NC2CCCCCCC2)n1	-1%	-9%	/	15%[46.1 µM]	/	-7%	/	?
CCN(C(=O)CSc1nc2nc(C)cc(C)n2n1)c1ccccc1	-1%	/	3%	-3%	6.1%	-2%	-2%	1%
COc1cccc(C2=NOC(C(=O)N3CCc4ccccc4C3)C2)c1 (stereo not given)	-18%	21%	-17%	/	-8.0%	12%	-46%	/
COc1ccccc1C1C(C#N)=C(N)Oc2c1oc(CO)cc2=O (stereo not given)	-1%	0%	/	5%[46.1 µM]	/	-10%	-2%	-25%[46.1 µM]
CC(=O)NC12CC3CC(C1)CC(C(=O)Oc1ccc(N(C)S(=O)(=O)c4cc(C)ccc4C)cc1)(C3)C2	-1%	?	/	-3%[46.1 µM]	/	4%	/	?
COCCn1c(C)cc(C(=O)COC(=O)Cc2n[nH]c(=O)c3ccccc23)c1C	3%	-5%	/	0%[46.1 µM]	/	20%	/	0%
COc1cc(C(=O)NCC(=O)NCCSc2ccc(Br)cc2)cc(OC)c1OC	1%	-16%	/	-22%	/	0%	/	-17%
CCN(CC(=O)NCc1ccc(F)cc1)C(=O)/C=C/c1cccs1	1%	0%	/	?	/	26%	/	-46%
Cc1csc(SCCn2c(N3CCOCC3)nc3c2c(=O)[nH]c(=O)n3C)n1	3%	-19%	4%	/	-0.1%	1%	4%	/
Cc1nc2ccn(Cc3cccnc3)c(=O)c2cc1C(=O)N1CCN(c2ccccc2F)CC1	/	-18%	1%	/	-4.7%	/	/	6%[46.1 µM]
COc1ccc(NC(=S)c2ccncc2)cc1	-15%	-18%	6%	-3%	-4.5%	-25%	7%	4%
Nc1c2c(nc3sc4c(c13)CCCC4)CCCCC2	-2%	-19%	-5%	7%	-14%	15%	-6%	?
CC(C)C[C@@H](COc1ccccc1)N1CCN(C)CCC1=O	6%	-15%	/	/	/	7%	-4%	/
Cc1nc(CNS(=O)(=O)c2cccnc2)cs1	-2%	/	-14%	1%	3.8%	6%	9%	9%
CC(CCc1ccccc1)NC(=O)Cn1c(=O)nc(-c2ccccc2)c2cc(Cl)ccc21 (stereo not given)	/	-21%	26%	/	-2.8%	/	/	-19%[46.1 µM]
COc1cccc(C=Nc2cccnc2)c1O	2%	/	-5%	5%	2.5%	/	3%	/
COc1ccc(C2c3c(nc(C)[nH]c3=O)Oc3c2c(=O)oc2ccccc32)cc1 (stereo not given)	-3%	5%	/	/	/	2%	7%	/
CCOC(=O)N/N=C/c1cc(C)n(-c2ccccc2)c1C	14%	77%[activator]	15%	1%	-0.5%	-4%	-16%	-22%
Cc1cc2c(=O)[nH]cnc2s1	-1%	0%	5%	0%	2.0%	4%	-3%	1%
O=S(=O)(N/N=C\c1ccccc1O)c1ccc(Cl)cc1	4%	37%[activator]	/	/	/	-9%	-35%	/
O=C(Nc1ccccc1C(=O)N1CCCC1)c1ccc(Cl)c([N+](=O)[O-])c1	0%	2%	/	-4%[46.1 µM]	/	-5%	2%	12%
Cc1ccc(C)c(N2CCN(CCN3CCCCC3)CC2)c1	1%	-7%	/	/	/	1%	2%	/
CCOC(=O)c1c(NC(=O)CSc2c[nH]c3ccccc23)sc2c1CCCC2	-12%	?	25µM*	13µM*	-0.7%	24%	-5%	?
Cc1ccc(NC(=S)Nc2ccc(S(=O)(=O)N3CCOCC3)cc2)cc1S(=O)(=O)N1CCOCC1	2%	-6%	/	-1%[46.1 µM]	/	50%	/	11µM*
CCOC(=O)C1(Cc2cccc(OC)c2)CCN(Cc2ccc3c(c2)OCCO3)CC1	0%	?	/	?	/	10%	-2%	?
COC(=O)C1=C(C)N(CCCC(=O)O)C(=O)NC1c1ccc(-c2ccccc2)cc1 (stereo not given)	4%	-18%	7%	-7%	-2.5%	-2%	-3%	2%

Arranged by SMILES length (largest number first): part of the list above.
SMILES	SARS PLpro yeast	2A StopGo	Cruzain noTriton	Marburg entry inh	Cruzain inh Det	RE007 growth inh	NS1 function inh	LASV entry inh
Cc1ccc(NC(=S)Nc2ccc(S(=O)(=O)N3CCOCC3)cc2)cc1S(=O)(=O)N1CCOCC1	2%	-6%	/	-1%[46.1 µM]	/	50%	/	11µM*
COC(=O)C1=C(C)N(CCCC(=O)O)C(=O)NC1c1ccc(-c2ccccc2)cc1 (stereo not given)	4%	-18%	7%	-7%	-2.5%	-2%	-3%	2%
O=C(Nc1ccccc1C(=O)N1CCCC1)c1ccc(Cl)c([N+](=O)[O-])c1	0%	2%	/	-4%[46.1 µM]	/	-5%	2%	12%
CCOC(=O)C1(Cc2cccc(OC)c2)CCN(Cc2ccc3c(c2)OCCO3)CC1	0%	?	/	?	/	10%	-2%	?
Cc1ccc(C)c(N2CCN(CCN3CCCCC3)CC2)c1	1%	-7%	/	/	/	1%	2%	/

More structures.
SMILES	SARS PLpro yeast	2A StopGo	Cruzain noTriton	Marburg entry inh	Cruzain inh Det	RE007 growth inh	NS1 function inh	LASV entry inh
O=C(Cn1ncc2c3ccccc3n(Cc3ccc(F)cc3)c2c1=O)NCc1cccs1	/	-1%	-4%	-6%[46.1 µM]	-1.8%	/	/	?
COc1cccc(/C=N/Nc2ncnc3c2[nH]c2ccc(C)cc23)c1OC	-3%	-6%	/	/	/	15%	4%	/
NC(=O)COC(=O)c1ccccc1SCC(=O)NC1CCCCCC1	0%	-6%	/	0%[46.1 µM]	/	46%	/	-7%[46.1 µM]
COc1ccc(-c2c[n+](CC(=O)c3cccs3)c3n2CCC3)cc1	1%	0%	/	-17%	/	-6%	10%	-11%
CC(=O)Nc1ccnn1C1CCN(C(=O)c2cccc(C)c2C)CC1	-11%	-6%	/	/	/	1%	0%	/
COc1cc2[nH]c(=O)n(CCC(=O)NCCC(C)C)c(=O)c2cc1OC	-6%	15%	5%	-9%	3.0%	10%	10%	0%
CC(CCc1ccccc1)NCC(O)c1cccc([N+](=O)[O-])c1 (stereo not given)	-1%	-5%	/	?	/	0%	1%	/
O=C1COc2ccc(S(=O)(=O)NCc3ccccc3)cc2N1	2%	70%[activator]	/	-4%[46.1 µM]	/	5%	-5%	-10%[46.1 µM]
O=C(c1ccc(Cl)cc1)c1cn(Cc2ccccc2)c2cc3c(cc2c1=O)OCCO3	/	0%	8%	?	-1.8%	/	/	?
CN(C)c1ccc(NC(=S)NC23CC4CC(CC(C4)C2)C3)cc1	1%	9%	/	?	/	-6%	-10%	?
CCC1(CC)NC(=O)N(CC(=O)OCc2nc3cc(C(=O)OC)ccc3c(=O)[nH]2)C1=O	3%	-21%	/	?	/	12%	/	-1%
COc1ccc(-c2ccc3c(N)c(C(=O)Nc4cc(F)ccc4C)sc3n2)cc1	/	0%	5%	?	1.8%	/	/	5%[46.1 µM]
Cc1ccc(Cn2c(N3CCCCCC3)nc3c2c(=O)[nH]c(=O)n3C)cc1	0%	-2%	-9%	?	-3.9%	19%	-5%	-8%
NC(=O)CC(NC(=O)Cc1cccc2ccccc12)c1ccc(N2CCC(N3CCCC3)CC2)c([N+](=O)[O-])c1 (stereo not given)	-1%	12%	/	/	/	11%	-16%	/
COc1ccc(C(C)(C)C)cc1NC(=O)CCNC(=O)c1ccco1	-4%	2%	/	3%[46.1 µM]	/	8%	3%	?
Cc1cccc(SCC(=O)Nc2ccc3c(c2)OCCO3)c1	1%	19%	/	?	/	-6%	-46%	24%[46.1 µM]
O=C(COc1ccccc1C(=O)NCc1ccncc1)Nc1ccc(Br)cc1	0%	-5%	/	?	/	-16%	/	-1%
CC(C)Oc1ccc(N2CC(C(=O)Nc3ccccc3C(=O)NC3CC3)CC2=O)cc1 (stereo not given)	-1%	8%	/	1%[46.1 µM]	/	5%	/	0%
[O-]/C(=C(\C(=S)Nc1cccc2ccccc12)[n+]1ccccc1)c1ccc(Cl)s1	17%	-6%	7.9µM*	13%	-14%	-14%	?	6%
CCOC(=O)C1(CCCc2ccccc2)CCN(C(=O)CCOC)CC1	-1%	-5%	/	-5%[46.1 µM]	/	11%	-9%	-18%
Cc1nc2ccc3nc(NC(=O)c4ccc5c(c4)OCCO5)sc3c2s1	-9%	18%	-5%	14%&14%	3.2%	-1%&0%	8%	?
Cc1cc(Cl)ccc1NNC(=O)c1cccs1	-3%	-11%	/	5%	/	200%	-5%	-4%
CC1CCCCC1NC(=O)/C(C#N)=C/c1ccc2c(c1)OCCO2 (stereo not given)	-6%	0%	-3%	13%	-2.7%	-17%	4%	-12%
CC(C)(C)n1nnnc1C(c1cccs1)N1CCN(Cc2ccc3c(c2)OCO3)CC1 (stereo not given)	4%	0%	-1%	-20%	6.9%	0%	17%	2%
COc1ccc(NC(=O)c2ccccc2N(Cc2ccccc2)S(C)(=O)=O)cc1OC	0%	-16%	/	0%[46.1 µM]	/	4%	6%	13%
CC(=O)N1CCCc2cc(S(=O)(=O)N3CCCCC3)ccc21	/	-3%	-9%	/	-0.9%	/	/	0%[46.1 µM]
Cc1ccc(S(=O)(=O)N2CC(=O)Nc3ccccc32)c(C)c1NS(C)(=O)=O	-1%	-10%	/	5%[46.1 µM]	/	13%	6%	1%[46.1 µM]
O=C1CCCC(O)=C1N=Nc1ccc(Cl)c(Cl)c1	0%	23%	/	-2%[46.1 µM]	/	-23%	/	-19%[46.1 µM]

Screening results deposited in PubChem BioAssay by National Center for Advancing Translational Sciences (NCATS).
